Screens (PubChem)
Cruzain Triton: inhibitors of Trypanosoma cruzi cruzain with detergent; P25779; purified cruzain, Z-FR-AMC fluorescence, 0.01% Triton; Potency, µM, for the others: max response, negative = inhibition, actives largely listed as inhibitors; 200,000 compounds, 0.43% hits; AID 1478; active means well fitted curve in the direction sought with a large enough effect; inconclusive means small, poorly fitted or top-dose-only effect, or another doubt; inactive means no such curve, though single readings can be large; an effect the other way counts as inactive or inconclusive;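 further: plate controls were neutral wells for no effect and buffer without enzyme for full effect; nearly all actives have a fitted effect of over 40% in size; top concentration of the series not given in the record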
Target sequence (P25779 123-467 limits assumed): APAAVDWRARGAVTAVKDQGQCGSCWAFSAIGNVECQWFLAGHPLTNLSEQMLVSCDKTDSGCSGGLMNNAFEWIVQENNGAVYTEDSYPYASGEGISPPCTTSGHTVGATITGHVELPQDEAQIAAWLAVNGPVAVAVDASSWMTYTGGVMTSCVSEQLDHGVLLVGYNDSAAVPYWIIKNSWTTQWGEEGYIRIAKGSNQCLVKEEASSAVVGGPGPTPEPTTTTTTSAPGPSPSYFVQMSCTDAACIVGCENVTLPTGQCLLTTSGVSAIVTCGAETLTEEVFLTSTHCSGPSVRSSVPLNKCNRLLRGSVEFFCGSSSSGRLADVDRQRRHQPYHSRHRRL
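Steps: dispense cruzain (1.5 nM final) in acetate buffer pH 5.5 with DTT and 0.01% Triton X-100; pin-transfer compounds; incubate 15 min RT; add Z-FR-AMC (2 uM final); read fluorescence every 30 s, using the 60 s intensity change.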
StopGo reporter: FMDV 2A StopGo reporter, luciferase signal; 410,000 compounds, 1.2% hits; AID 1159524; human cells with a luciferase reporter of 2A StopGo recoding; control for the full effect not named in the record; Potency, µM (highest dose often 57.9 µM), for inactives: top-dose signal change, negative = less light; active = well fitted falling curve with a large enough effect; inconclusive = small, poorly fitted or top-dose-only effect; inactive = no such curve, though single readings can be large or run the other way; tested in HEK293T cells; further: on the % scale 0 is the no-effect control and ±100 the full control effect; nearly all actives have a fitted effect of over 45% in size; luciferase light after 4 h
Cruzain inh noDet: inhibitors of Trypanosoma cruzi cruzain without detergent; P25779; purified cruzain, Z-FR-AMC fluorescence, no detergent; Potency, µM, without a hit: max response, negative = inhibition, actives largely listed as inhibitors; 200,000 compounds, 2.3% hits; AID 1476; active means well fitted curve in the direction sought with a large enough effect; inconclusive means small, poorly fitted or top-dose-only effect, or another doubt; inactive means no such curve, though single readings can be large; an effect the other way counts as inactive or inconclusive;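 further: plate controls were enzyme without inhibitor for no effect and buffer without enzyme for full effect; nearly all actives have a fitted effect of over 40% in size; top concentration of the series not given in the record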
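Purified cruzain at 1.5 nM, pre-incubated 15 min with compound at room temperature in 100 mM sodium acetate pH 5.5, 5 mM DTT, 0.00005% Triton X-100. Reaction started with 2 uM Z-FR-AMC; AMC fluorescence increase over 60 s gives rate.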
MARV entry inh: inhibitors of Marburg virus binding or cell entry; 300,000 compounds, 1.8% hits; AID 540276; Potency, µM (series often up to 37.8 µM), inactives show at the highest dose activity change, negative = inhibition, hits mostly inhibitors; Marburg virus pseudotyped entry inhibition, cell reporter; control for the full effect not named in the record; about a third of the inactives were read at about 46 µM; active = well fitted inhibition curve with a large enough effect; inconclusive = small, poorly fitted or top-dose-only effect, or effect the other way; inactive = flat fitted curve, though single readings scatter; tested in HEK293 cells; about a fifth of its hits are not listed in these tables; further: on the % scale 0 is the no-effect control and ±100 the full control effect; luciferase read-out
Lassa entry inh: Lassa virus entry inhibition; 300,000 compounds, 1.2% hits; Lassa virus pseudotype entry inhibition, cell reporter; control for the full effect not named in the record; Potency, µM (titrated, usually from 37.9 µM), without a hit: at the highest dose activity change, negative = inhibition, usual class: inhibitors; active means well fitted inhibition curve with a large enough effect; inconclusive means small, poorly fitted or top-dose-only effect, or effect the other way; inactive means flat fitted curve, though single readings scatter; tested in HEK293 cells; further: on the % scale 0 is the no-effect control and ±100 the full control effect; nearly all actives have a fitted effect of over 50% in size; luciferase read-out
SARS PLpro yeast: blocks SARS-CoV papain-like protease in a yeast assay | S. cerevisiae expressing SARS-CoV PLpro, growth rescue; control for the full effect not named in the record | Potency, µM (highest dose often 32.9 µM), without a hit: top-dose activity, positive = growth rescue | 330,000 compounds, 0.19% hits | AID 485353; further: 0% is about no effect; nearly all actives have a fitted effect of over 55% in size; growth read by luminescence after 48 h
NS1 function inh: blocks influenza NS1 protein function; S. cerevisiae slowed by influenza A NS1, growth recovery by OD600; Potency, µM (top dose mostly 46.1 µM), for inactives: top-dose activity, positive = more growth; 270,000 compounds, 0.4% hits; further: actives are rising curves; nearly all actives have a fitted effect of over 50% in size
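Recovery from NS1-induced slow growth read by OD600 in budding yeast switched to galactose assay medium (pH 6.0, -URA) at 1:100 dilution. Compound 23 nl per well; the matching strain lacking NS1 serves as control.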
RE007 growth inh: less growth of the S. pombe RE007 Vpr strain | S. pombe RE007 Vpr strain, BacTiter-Glo ATP luminescence, 24 h; control for the full effect not named in the record | Potency, µM (doses to about 92.2 µM), for the others: at the highest dose activity change, negative = less growth | 360,000 compounds, 0.21% hits; active = well fitted falling curve with a large enough effect; inconclusive = small, poorly fitted or top-dose-only effect; inactive = no such curve, though single readings can be large or run the other way;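 further: on the % scale 0 is the no-effect control and ±100 the full control effect; nearly all actives have a fitted effect of over 50% in size; the assay follows cell death caused by Vpr and the record does not say whether a fall means rescue or toxicity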
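Fission yeast RE007 carrying one integrated HIV-1 vpr copy, seeded at OD 0.01 in PMG+AL medium with 23 nL pinned compound. Grown 24 h at 30 degrees; viability read by BacTiter-Glo luminescence after 5 min.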
* marks the source's active call; other numbers are inactive results; ? = inconclusive; . = not tested or not shown; & = joins results of further samples; [ ] = remark or other dose. Unless noted, the call rests on the fitted dose curve; in most records, active means well fitted rising curve with a large enough effect; inconclusive means small, poorly fitted or top-dose-only effect; inactive means no such curve, though single readings can be large or run the other way. Potency means the concentration at half of the fitted maximal effect. Not a hit list. About 4.6% of those tested had a hit in this group.

canonical_smiles,Cruzain Triton,StopGo reporter,Cruzain inh noDet,MARV entry inh,Lassa entry inh,SARS PLpro yeast,NS1 function inh,RE007 growth inh
Cc1cc(NC(=O)CSc2nnc(CNC(=O)c3ccc(C(C)(C)C)cc3)o2)no1,.,-6%,.,21%,12%,-3%,7%,1%
O=C1C/C(=C/NCc2ccccc2)C(=O)N1,1.0%,-28%,-11%,?,10%,9%,?,15%
NCCNc1ccc2nnnn2n1,.,-2%,.,-5%,-17%,1%,.,-14%
Cc1cc(C)c2c(n1)sc1c(=O)n(-c3ccccc3C(F)(F)F)nnc12,2.0%,-5%,9%,1%[46.1 µM],15%[46.1 µM],.,.,.
C=CC[C@H](N)C(=O)O,-1.6%,.,-6%,?,?,.,-4%,.
CC(C)c1ccc(N2C(=O)CC(NNC(=O)c3ccccc3Cl)C2=O)cc1 (stereo not drawn),.,-11%,.,-29%[14.2 µM],22%,-3%,4%,5%
CC(C)(C)NC(=O)C1(N2C(=O)c3ccccc3C2=O)CCCC1,.,-5%,.,?,1%,.,.,-4%
CC1/C(=N/O)CC(c2ccccc2)NC1c1ccccc1 (stereo not drawn),2.3%,-25%,-5%,1%,-11%,-14%,3%,-3%
CCn1c(O)c(C=NCCc2c[nH]c3ccccc23)c(=O)[nH]c1=O,0.5%,-15%,-11%,0%,19%,0%,2%,-8%
CCOC(=O)c1nnn(CC(=O)Nc2ccccc2)c1C(=O)OCC,.,-19%,.,10%,0%,5%,.,-8%
COc1ccc(CCNC(=O)CCC(=O)Nc2nnc(C(C)C)s2)cc1OC,3.3%,-17%,5%,4%,-5%,1%,-9%,0%
CSCCC(=O)N1CCC(CCC(=O)NC2CC2)CC1,.,-18%,.,1%,20%,2%,5%,7%
Cc1c(/C(O)=C2/C(=O)C(=O)N(Cc3cccnc3)C2c2ccccn2)cnn1-c1ccccc1 (stereo not drawn),.,4µM*,.,?,-13%,0%,7%,1%
COc1ccc(-c2csc3ncnc(Nc4cccc(F)c4)c23)cc1,-0.6%,-14%,-18%,.,4%[46.1 µM],.,.,.
O=C(Oc1ccc(Br)cc1C(=S)N1CCOCC1)c1cccc([N+](=O)[O-])c1,.,6%,.,?,2%[46.1 µM],-5%,-8%,-6%
COc1cccc(N2CCN(c3ccc4nnc(CCC(=O)Nc5ccc(F)cc5F)n4n3)CC2)c1,.,-23%,.,-10%[46.1 µM],-26%[46.1 µM],-1%,9%,17%
CC(=O)N1c2ccccc2C(=O)C1N1CCCCC1 (stereo not drawn),3.7%,-3%,1%,?,1%,-3%,-5%,-1%
CC(=O)c1cccc(NC(=O)C(OC(=O)c2cccc(S(=O)(=O)N(C)c3ccccc3)c2)c2ccccc2)c1 (stereo not drawn),-1.5%,44%[activator],25µM*,?,-2%,3%,?,6%
COc1ccc(-c2c(C#N)c(SCC(N)=O)nc3c2CCCC3)cc1,-6.0%,-2%,-17%,-19%,-7%,?,-2%,13%
CC1(C)Cc2ccccc2/C(=C/C(=O)N2CCCCCC2)N1,3.8%,-12%,1%,?,1%,6%,7%,-9%
O=C(CSc1nc(-c2ccccc2)nc2ccccc12)Nc1nccs1,-2.1%,.,?,-22%,-18%,-1%,-33%,-24%
COc1ccc(NC(=O)Cn2nc(Cc3cccnc3)c3ccccc3c2=O)c(OC)c1,.,9%,.,.,.,2%,0%,-2%
COc1ccc(CNC(=O)c2ccc(N(C)S(=O)(=O)c3ccc(C)cc3)cc2)cc1,.,-15%,.,?,?,1%,-26%,3%
Cc1nc(CSc2nnc(C)s2)cs1,2.2%,3%,7%,10%,5%,18%,0%,-3%
CCC(=O)Nc1nnc(C(C)(C)C)s1,7.2%,-14%,-2%,-6%,-21%,3%,-4%,-12%
CC(=O)N1c2ccc(S(=O)(=O)N3CCCC3)cc2CC1C(=O)NC(C)C (stereo not drawn),.,-14%,.,.,.,2%,-2%,-4%
COc1cccc(Cn2cc(C)cc(NC(=O)NCc3ccccc3)c2=O)c1,.,35%[activator],.,.,.,4%,13%,0%
Cn1cnc(S(=O)(=O)NCc2cccs2)c1,-0.2%,-15%,15%,-5%,-4%,5%,9%,24%
CC(C)C1C(C#N)=C(N)Oc2n[nH]c(-c3cccs3)c21 (stereo not drawn),-5.3%,7%,5%,6%,?,-9%,-3%,12%
COc1ccccc1C(=O)Nc1nc2n(n1)C(c1ccc(F)cc1)C=C(c1ccc(Cl)cc1)N2 (stereo not drawn),-6.9%,-17%,?,11%[46.1 µM],2%[46.1 µM],.,.,.

Remaining list, next part:
canonical_smiles,Cruzain Triton,StopGo reporter,Cruzain inh noDet,MARV entry inh,Lassa entry inh,SARS PLpro yeast,NS1 function inh,RE007 growth inh
COc1ccc(C2=C/C(=C\c3ccccc3OC(C)=O)C(=O)O2)cc1,.,53%[activator],.,.,.,-2%,6%,2%
CCn1nc(C)c(NC(=O)c2ccc(Br)o2)c1C,-2.8%,2%,-6%,-4%,-3%,1%,5%,2%
Cc1ccc(CN(C(=O)COc2ccc(F)cc2)C2CCS(=O)(=O)C2)o1 (stereo not drawn),-2.8%,-19%,1%,1%[46.1 µM],9%[46.1 µM],.,.,.
Cc1ccc2nc(N3CCC(C(=O)N4CCC5(CC4)OCCO5)CC3)sc2c1,3.0%,-15%,?,7.9µM*,-25%,28%,-23%,-7%
Cc1ccc(CNC(C)c2ccccc2)s1 (stereo not drawn),1.3%,-24%,0%,?,?,.,.,.
COC(=O)C1CCN(C(=O)C2CCN(C(=O)[C@H](C)NS(=O)(=O)c3ccc(C)cc3)CC2)CC1,.,-4%,.,.,.,1%,-15%,24%
COc1cccc(N2C(=O)C3C(C2=O)C2C=CC3C23CC3)c1 (stereo not drawn),2.6%,-12%,-11%,2%,15%,7%,1%,-18%
COc1ccc(CCNC(=O)CSc2ccccn2)cc1,.,-12%,.,5%[46.1 µM],2%[46.1 µM],0%,-1%,-10%
O=C(O)C1C2C=CC3(CN(Cc4ccco4)C(=O)C13)O2 (stereo not drawn),1.8%,0%,-2%,.,.,-9%,0%,8%
O=C(NCCC1=CCCCC1)c1cc(-c2ccncc2)nc2ccccc12,.,-11%,.,-4%[46.1 µM],26%,-1%,.,1%
C/C(=N\Nc1ncc(Cl)cc1Cl)c1ccc(N2CCOCC2)cc1,.,4%,.,?,29%,-35%,.,1%
CCSc1nc(-c2ccccc2)c(-c2ccccc2)n1CC(O)CO (stereo not drawn),.,-14%,.,.,.,-1%,8%,0%
O=C(CC(Nc1ccc(F)cc1)c1ccccc1)c1ccccc1 (stereo not drawn),-11%,-1%,4%,0%[46.1 µM],22%,3.2µM*,0%,4%
COC(=O)CN1C(=O)C(O)(CC(=O)c2ccc(Br)cc2)c2ccccc21 (stereo not drawn),0.5%,-12%,8%,.,.,2%,0%,-1%
COc1ccccc1CNC(=O)C1CCN(S(=O)(=O)c2cccc3nonc23)CC1,.,-4%,.,0%[46.1 µM],?,1%,-3%,-13%
Cc1ccc(S(=O)(=O)N2CCC(C(=O)N3CCc4ccccc43)CC2)cc1,.,15%,.,-1%,-6%,-4%,9%,-1%
COc1ccc(C(=O)O/N=C(\N)c2ccc(OC)c(OC)c2)cc1,.,16%,.,.,.,-3%,-33%,-4%
CSc1nc(C)c(C(=O)C[n+]2ccc(C)cc2)cc1C#N,.,-2%,.,.,.,1%,?,-3%
Nn1c(SCC(=O)Nc2ccccc2F)nnc1C1CCCCC1,.,-4%,.,.,.,-9%,-8%,3%
CC1CCCC(NCC(O)COC(c2ccc(F)cc2)c2ccc(F)cc2)C1C (stereo not drawn),.,?,.,?,?,0%,5%,2%
CC(C)Nc1nc(NC(C)C)nc(SCCOC(=O)Nc2ccc(Cl)cc2Cl)n1,-6.0%,-21%,0%,-12%,-18%,-78%,-16%,-1%
CCCCC(c1nnnn1CC1CCCO1)N1CCN(c2nc3ccccc3s2)CC1 (stereo not drawn),-3.2%,?,?,?,-20%,-3%,-40%,-9%
COc1ccccc1Oc1c(C)oc2cc(OC(=O)c3ccco3)ccc2c1=O,-21%,2%,-13%,-8%,-1%,-6%,-107%,-3%
O=C(O)C1CCCCC1C(=O)N1CC=C(c2ccccc2)CC1 (stereo not drawn),-0.1%,?,-9%,-1%,12%,1%,14%,-7%
COc1ccc(NC(=O)c2cc(S(=O)(=O)N3CCc4ccccc43)cn2C)c(OC)c1,.,0%,.,.,.,10%,4%,-1%
CCOC(=O)C1=C(C)NC(C)=C(C(=O)OCC)C1C(=O)OCC(=O)N1CCCCC1CC (stereo not drawn),-6.8%,1%&8%,?,5%[46.1 µM],-22%[46.1 µM],-3%,-5%,-6%&16%
CN1CCN(CCCn2cnc3c(=O)oc4ccccc4c32)CC1,-2.9%,-17%,-16%,8%,3%,0%,-4%,9%
Cc1ccc(OCC(=O)NNC(=O)c2cccnc2)cc1C,.,0%,.,3%[46.1 µM],1%,0%,1%,-9%
S=C(NCC1CCCO1)NC12CC3CC(CC(C3)C1)C2 (stereo not drawn),.,14%,.,17%[46.1 µM],.,-11%,.,-20%
CNCCCc1[nH]nc(N)c1C#N,2.4%,-16%,0%,-2%,-4%,1%,-5%,-11%

(next part)
canonical_smiles,Cruzain Triton,StopGo reporter,Cruzain inh noDet,MARV entry inh,Lassa entry inh,SARS PLpro yeast,NS1 function inh,RE007 growth inh
O=S(=O)(Nc1ccc(Cl)cn1)c1cccs1,.,13%,.,1%[46.1 µM],-9%,1%,-6%,25%
O=C(CN1C(=O)S/C(=C\c2ccccc2)C1=O)NC1CCS(=O)(=O)C1 (stereo not drawn),.,8%,.,-20%[46.1 µM],23%[46.1 µM],-4%,4%,87%
O=C1c2ccccc2C(=O)N1CCn1ccnc1,.,-13%,.,?,26%,3%,9%,1%
Cc1ccccc1C(=O)c1c[nH]c(C(=O)NCc2cccs2)c1,-0.5%,2%,-8%,?,?,0%,-8%,13%
